Assay outcomes as filed in PubChem.
Vaccinia Venus = vaccinia inhibition (Venus reporter); Vaccinia virus Venus reporter expression, fluorescence; Potency, µM (doses to about 36.5 µM), inactives show at the highest dose activity change, negative = inhibition, most hits filed as inhibitors; 330,000 tested, 0.46% active; AID 720580; active means well fitted inhibition curve with a large enough effect; inconclusive means small, poorly fitted or top-dose-only effect; inactive means no such curve, though single readings can be large or run the other way; tested in A549 cells; further: nearly all actives have a fitted effect of over 30% in size; inactives centre near -10
VACV mCherry inh = vaccinia inhibition (mCherry reporter); Potency, µM (top dose mostly 36.5 µM), without a hit: at the top dose activity change, negative = inhibition, usual class: inhibitors; Vaccinia virus mCherry reporter infection, fluorescence; about a quarter of the inactives have no number; 310,000 tested, 0.63% active; active = well fitted inhibition curve with a large enough effect; inconclusive = small, poorly fitted or top-dose-only effect; inactive = no such curve, though single readings can be large or run the other way; tested in A549 cells; further: nearly all actives have a fitted effect of over 35% in size; inactives centre near -10
The depositor's hits bear a star; i = inactive; ? = inconclusive; / = not tested or not shown; & = joins results of further samples; [ ] = dose if it differs, or a comment. On the % scale 0 is the no-effect control and ±100 the full control effect; potency means the concentration at half of the fitted maximal effect. This is a random part of the collection. Share with any hit: about 0.87%.

SMILES	Vaccinia Venus	VACV mCherry inh
CC(OC(=O)c1ccco1)C(=O)Nc1ncc(Cl)cc1Cl (stereo not given)	-5%	-11%
COc1cccc(OCC(=O)NNC(=O)c2ccc(-c3ccccc3)cc2)c1	-8%	-13%
O=C(O)c1ccc(NC(=O)C2CCN(S(=O)(=O)c3ccc4c(c3)OCCO4)CC2)cc1	-1%	-12%
COc1ccc(-c2nnc(-c3ccccc3O)o2)cc1	-21%	?
Cn1c(=O)oc2cc(S(=O)(=O)N3CCCC(C(=O)Nc4ccc5c(c4)OCCO5)C3)ccc21 (stereo not given)	-6%	13%
COc1cccc(C(=O)Nc2nc3ccc(S(=O)(=O)N4CCCC4)cc3s2)c1	-23%	-21%
CSCC[C@@H](N)C(=O)O	-9%	i
NNc1nc2c(-c3cccc(C(F)(F)F)c3)nnn2c2ccccc12	4%	?
OCCNc1nc(-c2cccs2)nc2ccccc12	-22%	-3%
CC(C(=O)NCCCc1ccccc1)c1ccc([N+](=O)[O-])cc1 (stereo not given)	-6%	-10%
Nn1c(-c2cccc([N+](=O)[O-])c2)nc2ccccc2c1=O	-20%	i
CCOc1ccc(C(=O)c2cn(Cc3ccccc3)c3c(F)cc(F)cc3c2=O)cc1	-8%	-10%
CC(C)(C)NC(=O)COC(=O)/C=C/c1ccccc1[N+](=O)[O-]	-4%	-12%
COc1ccc(-c2nc3ccccc3[nH]2)cc1	-18%	i
CCN(CC(=O)Nc1ccc2c(c1)OCCO2)S(=O)(=O)c1cccs1	3%	-3%
CCOCCCNC(=O)c1[nH]c2cc(C)ccc2c1Sc1ccc(Cl)cc1	-7%	0%
COc1ccc(C2/C(=C(/O)c3ccc4c(c3)CC(C)O4)C(=O)C(=O)N2CCN2CCOCC2)cc1 (stereo not given)	-10%	i
CSc1ncccc1C(=O)OCc1c(F)cccc1Cl	-27%	-17%
COC(=O)c1ccc(C2/C(=C(/O)c3ccc(OC(C)C)cc3)C(=O)C(=O)N2c2cc(C)on2)cc1 (stereo not given)	-14%	-17%
O=C(NCc1ccccn1)c1ccc(S(=O)(=O)Nc2ccccc2F)cc1	-15%	-22%
CC(C)C(NC(=O)C1CC(=O)N(Cc2ccccc2)C1)c1nc2ccccc2[nH]1 (stereo not given)	-4%	i
COCCCNC(=O)c1ccc(Cn2c(=O)c3ccccc3n(CC(=O)Nc3c(C)cccc3C)c2=O)cc1	3%	3%
COc1ccc(OCC2CCCN(Cc3nc(CC4CC4)no3)C2)cc1 (stereo not given)	2%	-8%
COc1ccccc1NC(=O)C1=C(C)Nc2nc(SCc3ccccc3F)nn2C1c1ccncc1 (stereo not given)	-13%	-2%
CC1CC(C)CN(C(=O)c2cn(C)c3ccc(S(=O)(=O)N(C)C)cc3c2=O)C1 (stereo not given)	6%	-8%
Cc1cc2c(c(=O)o1)C(c1ccc([N+](=O)[O-])o1)C(C#N)=C(N)O2 (stereo not given)	45%[activator]	i
CC(C)(C)C(=O)NC1(C(F)(F)F)NC(=O)N(c2ccc(F)cc2)C1=O (stereo not given)	-9%&-6%	-8%&-3%
CSc1nnc(-c2ccc(C(F)(F)F)cn2)o1	-2%	-12%
CCS(=O)(=O)c1ccc2oc(Nc3ccc(C(C)C)cc3)nc2c1	-30%	/
C=CCc1ccc(OCCOCCNCCOC)c(OC)c1	-11%	/
Cc1c(CN(C)CCc2ccccc2)c(=O)n(-c2ccccc2)n1C	-8%	-7%
O=C(c1ccc(CS(=O)(=O)c2ccccc2)o1)N1CCN(c2ncccn2)CC1	-10%	-1%
C[C@H](CCC(=O)NCC(=O)O)C1CC[C@H]2C3CC[C@@H]4C[C@H](O)CC[C@]4(C)C3C[C@H](O)[C@]12C (stereo not given in full)	-11%	i
COCCCN1C(=O)C(CC(=O)NCc2ccco2)CC(C(=O)N(C)C)=C1C (stereo not given)	-1%	i
CCOC(=O)c1cnn2c(C(F)(F)F)cc(-c3ccco3)nc12	-10%	/
CN(C)Cc1ccccc1-c1ccc2ncnc(N3CCOCC3)c2c1	1%	i
O=C(NC(Cc1ccccc1)C(=O)N1CCN(c2ccccc2O)CC1)c1ccccc1 (stereo not given)	-12%	?
Cc1cccc(NC(=O)c2sc3cccc(Cl)c3c2Cl)c1	-6%	-11%
COCCn1c(C)cc(C(=O)COC(=O)c2ccc[nH]c2=O)c1C	1%	-12%
O=C(NCc1ccc2c(c1)OCO2)c1ccc(CN2CCOCC2)cc1	-7%	-8%

Quoted at random: 3 entries already listed
SMILES	Vaccinia Venus	VACV mCherry inh
COCCn1c(C)cc(C(=O)COC(=O)c2ccc[nH]c2=O)c1C	1%	-12%
CN(C)Cc1ccccc1-c1ccc2ncnc(N3CCOCC3)c2c1	1%	i
COCCCN1C(=O)C(CC(=O)NCc2ccco2)CC(C(=O)N(C)C)=C1C (stereo not given)	-1%	i

Next section.
SMILES	Vaccinia Venus	VACV mCherry inh
NC(=S)Nc1ccc(F)cc1F	-11%	i
Cc1cc(C)c2[nH]c(=O)c(C(c3nnnn3C(C)(C)C)N3CCN(C(=O)c4ccco4)CC3)cc2c1 (stereo not given)	-7%	-15%
CCOC(=O)NNc1ccc2nonc2c1[N+](=O)[O-]	0%	i
CC1CCCCN1C(=O)CCS(=O)(=O)c1cc2c(cc1Cl)NC(=O)CO2 (stereo not given)	6%&0%	-7%&4%
Cc1sc2nc[nH]c(=S)c2c1-c1ccccc1	-8%	-24%
O=C1NC2(CCCCCC2)C(=O)N1Cc1ccc(Br)cc1	-15%	-2%
O=C1c2ccccc2C(=O)N1CSc1nnc(Nc2ccccc2F)s1	-8%	i
O=C(NCc1nc(-c2ccc(C(F)(F)F)cc2)no1)Nc1ccc(F)cc1F	-21%	-20%
CCOC(=O)Cc1csc(NC(=O)Cc2ccccc2)n1	-12%	i
O[C@H]1C2CCC1C(N1CCCCC1)CC2 (stereo not given in full)	-15%	-13%
O=S(=O)(Nc1ccc(-c2cn3cccnc3n2)cc1)c1ccccc1	-19%	-11%
Cc1nc2c(c(C)c1CCC(=O)N1CCN(c3ccccc3)CC1)c(=O)n(C)c(=O)n2C	-4%	-3%
CC(CCc1ccccc1)NC(=O)/C=C/c1ccc(Cl)cc1 (stereo not given)	-6%	-16%
CS(=O)(=O)N1CCN(c2ccccc2NC(=O)Cc2ccccc2)CC1	-24%	/
COc1ccc(C2N(C(C)=O)CCCN2S(=O)(=O)c2ccc(C)cc2)cc1 (stereo not given)	-17%	-17%
Cc1cc2nc(C3CCCCC3)c(Cc3ccccc3)n2c(C)c1Br	-7%	-3%
Cc1c(C(=O)N2CCCC2)oc2c1-c1nn(CC(=O)NCc3ccccc3Br)cc1CC2	-2%	-12%
COc1ccc2c(c1)c(=O)oc1c(C)c(OC(C)C(=O)N[C@@H](Cc3c[nH]c4ccc(O)cc34)C(=O)O)ccc12 (stereo not given in full)	5%	-8%
CC(C)OC(=O)CSc1nc(N2CCOCC2)c2c(c1C#N)CC(C)(C)OC2	-11%	-2%
O=C(Cn1cnc2c(NC(=O)OCc3ccccc3)ncnc21)NCCN1CCOCC1	-1%	i
O=c1cc(-c2ccccc2)c2cc(Cl)c3c(c2o1)CN(Cc1ccccc1)CO3	-11%	-15%
O=C(Nc1cccc(S(=O)(=O)N2CCCCC2)c1)c1ccc(S(=O)(=O)C(F)F)cc1	-28%	-22%
Cn1c(NCc2ccco2)nc2c1c(=O)n(Cc1ccc(Cl)c(Cl)c1)c(=O)n2C	-8%	/
O=C(c1ccco1)N1CCN(C(=O)c2cc(Cl)nc3ccccc23)CC1	-14%	i
CC(=O)N1CCc2c(sc3c2c(=O)n(-c2ccccc2)c(=O)n3CC(=O)Nc2ccccc2)C1	8%	-7%
Cc1ccc(Cn2c(CCNc3nc(-c4ccc(Cl)c([N+](=O)[O-])c4)cs3)nc3cc(C(=O)NCCCO)ccc32)cc1	-22%	-24%
CCOC(=O)c1c(C)oc2nc(C)nc(NCc3cccc(Cl)c3)c12	-11%	-5%
Nc1ncc(-c2ccc([N+](=O)[O-])cc2)cn1	-22%	-27%
COc1ccc(NC(=O)CS(=O)CC(=O)Nc2cccnc2)cc1 (stereo not given)	3%	1%
O=C(/C=C/c1cccc([N+](=O)[O-])c1)N1CCN(C(=O)c2ccco2)CC1	-12%	-6%
CCOc1ccc(NC(=O)CSc2nnc(CC)c(CC)n2)cc1	-10%	-7%
CCN(CC)c1ccc2cc(C=O)c(=O)oc2c1	-8%	-6%
Cc1ccc(-n2cc(CNC(C)c3cnn(C)c3)c(-c3ccc(F)cc3)n2)cc1 (stereo not given)	-18%	-20%
COc1ccccc1CNc1nccn(-c2ccc(F)cc2)c1=O	-4%	-6%
CCOC(=O)CN1N=C(/C=C/c2ccc(C)cc2)CCC1=O	17%	/
Cc1cccc(/C=N/NC(=O)C(C)Nc2cccc3ccccc23)n1 (stereo not given)	-25%	i
CC1SC(c2ccc(Cl)cc2Cl)NC1=O (stereo not given)	-12%	i
COC(=O)Cc1ccc(NC(=S)NC2CC2)cc1	-6%	-12%
O=C(NCCN1CCCC1)c1cc(-c2ccncc2)nc2ccc(S(=O)(=O)N3CCOCC3)cc12	-1%	-9%
CCCOc1c(Br)cc(C(=O)OCC(=O)NC2CC2)cc1OC	-11%	-13%
COc1cccc(CNC(=O)[C@@H]2CCCN2C(=O)[C@@H]2CCCN2C(=O)c2cccs2)c1	0%	-17%
CCOC(=O)c1ccc(N2C(=O)c3n[nH]c(C)c3C2c2ccc(CC)cc2)cc1 (stereo not given)	-10%	-8%
Cc1noc(/C=C/c2ccc(-c3ccccc3Cl)o2)c1[N+](=O)[O-]	-6%	/
Cc1ccc2oc(C(=O)N(Cc3ccc(N(C)C)cc3)CC3CCCO3)c(C)c2c1 (stereo not given)	-11%	-11%
Cn1c(=O)c2nnn(/N=C(\c3ccccc3)C3CC3)c2n(C)c1=O	-16%	/
Cc1cc(C)cc(NS(=O)(=O)c2ccc3[nH]cc(C(=O)N4CCCCCC4)c(=O)c3c2)c1	-10%	-11%
CCOC(=O)c1cc(-c2ccccc2)n(-c2cccc(C(=O)Nc3ccc(OCC)cc3)c2)c1C	-15%	-14%
CCc1ccc(N2C(=O)/C(=C/c3cccs3)N(CC(=O)OC)C2=S)cc1	-10%	-13%
Nc1nc2c(ncn2[C@H]2C[C@H](O)[C@@H](CO)O2)c(=O)[nH]1	?	?
Cc1c(C(=O)NCc2ccco2)oc2ccc(Br)cc12	-10%	i
CC(C)[C@H](NS(=O)(=O)c1ccccc1)C(=O)OCC(=O)NCc1ccc2c(c1)OCO2	-4%	-16%
Clc1ccccc1OCCCCN1CCNCC1	-3%	-12%
CSc1ccccc1NC(=O)COc1ccc(Cl)cc1	-15%	-3%
Cc1ccc(NS(=O)(=O)c2ccc3[nH]c(=O)oc3c2)cc1Cl	-16%	-23%
CCOc1ncccc1C(=O)N(CC)CC(=O)NCc1ccc(F)cc1	9%	-13%
CC(C)Cc1nn2c(=O)cc(CSCC(=O)Nc3ccccc3F)nc2s1	-3%[7.34 µM]	-11%[7.34 µM]
C#CCSc1nnc(-c2ccc(O)cc2)o1	-22%	-6%
CCNC(=S)N1CCN(CCN=CC2=C(O)CC(c3cccs3)CC2=O)CC1 (stereo not given)	-15%	-18%
C=CCc1c(OC(C)=O)c2ccccc2n(C)c1=O	-2%	i
Cc1sc(NC(=O)c2ccco2)c(CN2CCN(Cc3ccccc3)CC2)c1C	-20%	-27%

Looked up above:
Reading for CCOC(=O)c1cc(-c2ccccc2)n(-c2cccc(C(=O)Nc3ccc(OCC)cc3)c2)c1C under VACV mCherry inh: -14%
Reading for COc1cccc(CNC(=O)[C@@H]2CCCN2C(=O)[C@@H]2CCCN2C(=O)c2cccs2)c1 under VACV mCherry inh: -17%

Continuation:
SMILES	Vaccinia Venus	VACV mCherry inh
COc1ccc(CC2(CO)CCN(C(=O)NCc3ccccc3)CC2)cc1	-2%	i
COc1ccc(Nc2nc(Cl)nc(Nc3ccc(OC)cc3OC)n2)c(OC)c1	3%	-8%
COc1cc(-c2ncc3ccccn23)cc(OC)c1OC	-12%	i
CC12CN(C(=O)c3ccccc3Br)CC(C)(CN(C(=O)c3ccccc3Br)C1)C2=O	-4%	-10%
CCC(C)NC(=O)C1CCC(CNS(=O)(=O)c2ccc3c(c2)N(C(C)=O)CCO3)CC1 (stereo not given)	-13%	-22%
Cc1ccc(-c2nc(S(=O)(=O)c3ccc(F)cc3)c(N3CCN(c4ccccc4)CC3)o2)cc1	-3%	-17%
O=C(NCCC(=O)N(Cc1ccco1)Cc1cccs1)c1ccc([N+](=O)[O-])cc1	-14%	-9%
CC(C)(C)c1cc(=O)[nH]c(SCc2ccccc2)n1	-4%	-10%
FC(F)Oc1ccc(C2N=C(c3ccccc3)NO2)cc1 (stereo not given)	-5%	-22%
COC(=O)c1ccc(NS(=O)(=O)c2cc3c4c(c2)CCC(=O)N4CCC3)cc1	-16%	i

Record cards (already shown). Order of values: Vaccinia Venus, VACV mCherry inh
COCCCN1C(=O)C(CC(=O)NCc2ccco2)CC(C(=O)N(C)C)=C1C (stereo not given) is entered as -1%, i
O=C1c2ccccc2C(=O)N1CSc1nnc(Nc2ccccc2F)s1 is entered as -8%, i
CCOC(=O)CN1N=C(/C=C/c2ccc(C)cc2)CCC1=O is entered as 17%, /
Cc1ccc(NS(=O)(=O)c2ccc3[nH]c(=O)oc3c2)cc1Cl is entered as -16%, -23%
